# High-throughput results (PubChem)
# Beta apoptosis: inhibitors of cytokine-induced beta cell apoptosis, primary screen, luminescence; INS-1E cytokine-induced death, ATP luminescence, 48 h; percent of positive-control rescue, neutral wells zero; protection from apoptosis, % (concentration not given with the values); hit rate 0.8% among 300,000;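 active means all replicates at 75% or more, or half of them and the mean; inconclusive means half reach 75% but not the mean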;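 further: 0% = cytokine-treated negative control wells and 100% = positive control rescue; higher means more ATP so stronger rescue from cytokine killing; wells of about 40 µL received 100 nL stock; the first replicate is given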
# Vif A3G: inhibitors of Vif binding to APOBEC3G peptide, primary screen, biochemical, TR-FRET, GST-Vif 1-94, biotin-A3G peptide, dose response retest (AID 1117319) | hit rate 0.57% among 260,000 | inhibition, %, or IC50 in µM where a hit was titrated | Virion infectivity factor (Human immunodeficiency virus type 1 group M subtype B (isolate … | TR-FRET GST-Vif / biotin-A3G peptide binding; higher % means a stronger effect; test concentration not given here; strong numbers were not always called active;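 active means above the screen mean plus three standard deviations and confirmed in dose response; inconclusive means results disagree or hit not tested in dose response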;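 further: Vif residues 1-94 fused to GST binding biotinylated APOBEC3G peptide 110-148; 0% = full assay without inhibitor and 100% = GST in place of GST-Vif; retest series ran down from 100 µM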
# RanGTP-Impb inh: inhibitors of RanGTP-importin-beta interaction, primary screen, biochemical, FRET, CFP-Ran, YFP-importin-beta, homogeneous; cell-free CFP-Ran/YFP-importin-beta FRET ratio; hit rate 1.1% among 300,000; inhibition, % (no concentration beside the values);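 active means most replicates above 15%; inconclusive means exactly half above 15%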;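 further: 0% = DMSO wells and 100% = Ran loaded with GDP instead of GTP; wells of about 40 µL received 100 nL stock; the first replicate is given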
# Ecoli rRNA inh: reduced GFP signal of wild-type E. coli, primary screen, bacterial rRNA inhibitor project, GFP/RFP fluorescence, OD600, single point | E. coli WT GFP vs humanized-ribosome RFP mutants, 24 h; stronger effect = lower value; DMSO median 0, no signal -100 | GFP signal change (wild-type ribosome), % (test concentration not listed) | hit rate 1.6% among 350,000 | AID 720706, 2013;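 active means significant combined selectivity score with lowered wild-type GFP, culture density cut under 30%, mutant RFP and density less affected; inactive means any of these conditions unmet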; further: one replicate is shown; some compounds called inactive have numbers as strong as hits
# Calb FLC: C. albicans growth inhibition with fluconazole, primary screen, CaCi-2 strain, Alamar Blue fluorescence; C. albicans CaCi-2 (fluconazole-resistant clinical isolate) + fluconazole, 48 h; growth inhibition, % (concentration not given with the values); hit rate 0.57% among 300,000; AID 1979, 2009;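 active means most replicates above 75%; inconclusive means exactly half above 75%; inactive means most below 75%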;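 further: all wells also contain fluconazole at 8 µg/ml as a sub-toxic cotreatment; 0% = median of DMSO wells and 100% = median of geldanamycin control wells; wells of about 8 µL received 7.5 nL stock; the first replicate is given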
# T cruzi repl: inhibitors of intracellular T. cruzi growth, primary screen, luminescence, NIH3T3 host cells; T. cruzi beta-gal in NIH3T3, 90 h; inhibition, % (concentration not given with the values); hit rate 1.4% among 300,000;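 active means mean inhibition across valid replicates above about 55%, limit read from the data; inconclusive means mean below that limit but half or more replicates reach it; inactive means mean below it, under half of replicates reach it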;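 further: signal also drops with host cell toxicity which is not excluded here; 0% = plate median of DMSO wells and 100% = zero luminescence signal; higher percent means less beta-gal luminescence so fewer parasites; stock transfer was 50 nL into about 50 µL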
# AF4-AF9 inh: inhibitors of AF4 peptide binding to AF9, primary screen, biochemical, AlphaScreen, biotin-AF4 peptide, FLAG-AF9, single point. Protein AF-9 (Homo sapiens), P42568. inhibition, % at 10 µM. hit rate 0.47% among 350,000;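 active means every replicate reaching a set inhibition limit, whatever the replicate mean, cut at about 25% in these data; inconclusive means mean inhibition reaches that limit but some replicates miss it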;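 further: 0% = plate neutral control median and 100% = total signal loss; the record names both 10 and 1 µM as test concentration; the first replicate is given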
# Target sequence (P42568 whole entry, looked up): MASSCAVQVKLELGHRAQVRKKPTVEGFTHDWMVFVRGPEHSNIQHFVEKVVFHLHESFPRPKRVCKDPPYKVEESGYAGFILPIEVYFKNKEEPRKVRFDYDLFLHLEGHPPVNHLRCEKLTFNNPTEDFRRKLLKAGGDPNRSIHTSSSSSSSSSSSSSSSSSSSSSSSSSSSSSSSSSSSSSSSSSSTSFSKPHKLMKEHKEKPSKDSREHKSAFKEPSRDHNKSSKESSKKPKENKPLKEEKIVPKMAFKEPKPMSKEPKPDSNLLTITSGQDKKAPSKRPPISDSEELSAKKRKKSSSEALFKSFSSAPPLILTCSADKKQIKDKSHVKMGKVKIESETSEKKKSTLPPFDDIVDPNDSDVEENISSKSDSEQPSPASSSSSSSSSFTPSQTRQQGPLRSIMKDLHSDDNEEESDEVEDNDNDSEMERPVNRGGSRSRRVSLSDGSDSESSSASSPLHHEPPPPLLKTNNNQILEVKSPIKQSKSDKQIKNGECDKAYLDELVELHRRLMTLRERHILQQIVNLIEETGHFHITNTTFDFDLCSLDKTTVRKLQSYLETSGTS
# A1 inh: caspase 3/7 activation in MEF A1-2A-BIM cells, primary screen, A1 inhibitor project, cell-based, luminescence, HTS; Caspase-Glo 3/7 luminescence, 3 h; percent of clofoctol response, vehicle zero; hit rate 0.066% among 330,000; caspase activation, % (test concentration not listed);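 active means over half of replicate activation scores above 10%, or exactly half above 10 with the replicate mean above 10; inconclusive means replicate mean below 10 yet half the replicates above 10; inactive means over half of replicates below 10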;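 further: wells of about 30 µL received 50 nL stock; many hits fall short of the cut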
# Ecoli rRNA inh OD600: further read-out of Ecoli rRNA inh, marked with its call; OD600 change, %; measured here: OD600 growth;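 optical density of the mix in the first replicate; 0 = DMSO median and -100 = no signal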
# Ecoli rRNA inh RFP: second read-out of Ecoli rRNA inh, no call of its own (marks repeat the call); RFP signal change, %; measured here: RFP humanized mutant strains;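 first replicate; 0 = DMSO median and -100 = no signal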
# Starred values were filed as active, the others as inactive; ? = inconclusive; . = no result given; & = joins results of further samples.
SMILES,Beta apoptosis,Vif A3G,RanGTP-Impb inh,Ecoli rRNA inh,Ecoli rRNA inh OD600,Ecoli rRNA inh RFP,Calb FLC,T cruzi repl,AF4-AF9 inh,A1 inh
CCCCN1C(=O)C(O)(CC(=O)c2c(C)n[nH]c2C)c2cc(Br)ccc21 (stereo unspecified),-4,-3%,2.4,-21*,-11*,-3.8*,-7,1,.,0.0
Cc1ccc(NC(=O)N2CCC(C(=O)c3ccc(F)cc3)CC2)cc1,6,.,0.4,-10,-17,-2.2,-14,-31,-1.2,0.5
Cc1ccc(NC(=O)CN(C)CC(=O)Nc2ccc(F)c(Cl)c2)cc1,-6,2%,?,-52,-78,-32,9,-2,-1.2,-0.7
CC(/C=C/c1ccccc1)=N/NC(=O)CCC(=O)Nc1ccccc1C,2,5%,-5.1,.,.,.,-1,-8,.,2.0
COc1ccc2c(c1)C(=O)C(=O)N2CCS(=O)(=O)c1ccccc1,-17,.,-0.7,-1,2,2.4,-35,6,-2.9,0.2
Cc1nnc(NC(=O)C2CCN(c3nnnn3-c3ccccc3)CC2)s1,-1,0%,4.4,10,3,2.7,1,4,.,1.2
O=C(Cc1ccc(Br)cc1)NCc1ccccc1,22,.,1.9,6,10,1.9,-1,-17,0.3,0.9
COc1cccc(CN2CCN(Cc3ccco3)CC2)c1,-4,-5%,-0.6,4,5,-2.0,-7,2,0.6,0.2
O=C(Nc1cccc(C(F)(F)F)c1)c1cccnc1NCCc1ccccc1,-1,64%,-2.6,.,.,.,-34,10,.,-0.2
CC1CCC2(CC1)NC(=O)N(CC(=O)NCc1ccc3c(c1)OCO3)C2=O (stereo unspecified),-2,-3%,-1.3,7,-5,-2.0,2,-13,-4.2,0.0
Cc1cc(C(=O)O)n(C(C)(C)C)n1,-10,10%,-1.3,16,16,2.2,-4,-28,0.9,0.2
CCCCNC(=O)N1CCCN(c2ccc(C#N)cn2)CC1,-1,-4%,2.1,10,11,-0.5,-2,-23,-1.2,0.5
Cc1c(S(=O)(=O)Nc2ccc(Br)cc2)c(=O)n(C)c(=O)n1C,0,.,1.3,3,-3,-6.4,-3,2,2.6,0.8
O=C(Cn1ncc2c1-c1ccccc1OC2)Nc1cccc(Cl)c1,-6,-5%,-0.1,-15,-6,1.5,-10,-3,4.2,-0.1
COc1ccc(C(C(=O)NCc2ccccc2)N(Cc2ccc3c(c2)OCO3)C(=O)c2cnccn2)cc1 (stereo unspecified),.,-3%,-2.4,.,.,.,14,22,.,0.8
COc1ccc(CNC(=O)c2cnccn2)cc1,-6,5%,?,.,.,.,-4,-15,.,-0.5
CCOC(=O)c1ccc(NC(=O)CSc2nnc(C3CC3)n2CC)cc1,-3,?,2.6,.,.,.,-2,8,.,0.7
CCN(Cc1cc2cc(C)ccc2[nH]c1=O)C(=O)c1cccc(OC)c1,-3,-8%,-3.7,.,.,.,17,-5,.,0.2
Cn1nnnc1SCC(=O)NCc1ccc2c(c1)OCO2,-2,.,?,12,10,-0.5,3,-9,0.3,-0.3
Cn1nccc1C(=O)N1CCN(c2ccccc2F)CC1,-6,.,0.3,6,3,0.7,-3,0,-0.3,1.3
COc1cc(C(=O)Oc2ccc(C(=S)N3CCOCC3)cc2)cc(OC)c1OC,3,0%,0.2,7,-6,1.6,4,-8,-1.0,0.1
CC(C)(C)NC(=O)CSc1nncn1NCc1cccc2ccccc12,0,32%,7.7,.,.,.,33,0,.,1.3
CCOC(=O)C/C(N)=N/NC(=O)c1ccc(Cl)cc1Cl,-4,7%,?,9,8,1.7,3,-8,0.8,-0.2
Cc1ccc(-n2c(N)c(C(=O)N3CCCCC3)sc2=S)cc1,2,0%,-1.8,.,.,.,-17,-10,.,0.1
O/N=C/c1cn(-c2ccccc2)nn1,-3,-2%,-2.2,10,2,0.4,?,-1,-2.6,-1.1
CCOC(=O)N1CCC(N2C(=O)c3ccc(C(=O)NCc4ccc(F)cc4)cc3C2=O)CC1,-10,-1%,.,7,10,-5.8,.,.,-5.1,0.4
C=CCN(c1ccc(C(=O)NCCSc2ccccc2)cc1)S(C)(=O)=O,5,.,1.0,1,0,-0.8,13,-11,-17,-0.2
O=C(CCCCCl)Nc1c2c(nc3ccccc13)CCC2,-2,11%,-0.1,0,0,3.6,-1,-6,-4.4,0.0
O=C(O)CC(C(=O)O)c1ccc(OCCCCOc2ccc(C(CC(=O)O)C(=O)O)cc2)cc1 (stereo unspecified),0,-2%,2.5,4,6,-1.7,-9,-2,-2.1,-0.5
COC(=O)c1ccc2c(=O)n(CCN3CCOCC3)c(SCC(=O)Nc3ccc(C)cc3)nc2c1,.,-3%,?,-1,6,-4.4,6,-7,-0.8,.
C/C(=N\NC(=O)c1ccc(NS(=O)(=O)c2cccs2)cc1)c1ccc2ccccc2c1,-6,-3%,1.3,.,.,.,1,-3,.,0.5
O=C(NN1C(=O)C2C3C=CC(O3)C2C1=O)c1ccncc1 (stereo unspecified),-1,0%,2.5,-3,-4,-13,2,12,-7.3,0.3
Cc1cc(N2CCCCCC2)nc2ccccc12,3,-6%,0.7,.,.,.,7,14,.,2.5
COc1cc2c(C(=O)NCc3ccccn3)cn(C)c(=O)c2cc1OC,.,-1%,1.0,.,.,.,-12,-6,.,-4.3
Cc1ccc(OCC(=O)Nc2ccc(S(=O)(=O)Nc3ccccn3)cc2)cc1,-4,-1%,0.1,22,15,1.6,-1,-38,-0.8,1.0
CCOC(=O)Cc1csc(NC(=O)CSc2nnc(-n3nc(C)cc3C)c3ccccc23)n1,-10,9%&-7%,-2.4,.,.,.,-22,4,.,0.4
CC1(C)OC(=O)C(=CNC(CCC(N)=O)C(=O)O)C(=O)O1 (stereo unspecified),0,5%,?,.,.,.,6,-5,.,0.3
Brc1ccc(Oc2nnnn2-c2ccccc2)cc1,-6,-3%,0.8,-26,-39,-5.2,-8,13,-3.5,-0.1
CC(=O)c1cn(C)c(=O)c2ccccc12,1,9%,4.7,13,7,2.5,-7,-13,1.4,0.2
O=C(N/C(=C/c1cccs1)C(=O)N1CCCC1)c1ccccc1,-1,.,0.8,2,4,-0.8,-6,-11,4.0,0.1
CN1CCN(CC2(O)CCN(S(=O)(=O)c3ccc(Cl)cc3)CC2)CC1,0,?,?,-10,3,-0.2,15,72*,1.2,-0.4
O=C1C2CCCN2C(c2ccco2)N1c1ccc(F)cc1 (stereo unspecified),2,.,-0.3,19,5,1.0,-1,1,-1.5,0.6
CCc1nnc(NC(=O)CSc2nc3c(C)cccc3[nH]2)s1,0,11%,3.0,.,.,.,16,1,.,0.7
NS(=O)(=O)c1ccc(CNC(=O)c2csc3c2CCCC3)cc1,-4,-5%,-2.5,5,5,0.6,0,-5,-3.2,-0.6
O=C(Nc1ccc(-c2cn3c(n2)SCC3)cc1)c1ccc2c(c1)OCO2,-1,5%,-0.1,9,13,21,2,7,0.9,-8.2
CCNc1nc(NC(C)C)nc(SCCOc2ccc(C)cc2)n1,44,-1%,3.0,.,.,.,-5,4,.,-0.5
Cc1cccn2cc(CNc3ccccc3)nc12,1,3%,3.3,.,.,.,-9,-4,.,0.1
COc1ccc(C(=O)OCCNC(=O)c2ccncc2)cc1OC,-4,?,1.6,-42,-43,-8.9,-8,-15,1.8,0.3
COc1ccccc1-c1noc(-c2ccccc2C(=O)N2CCOCC2)n1,-1,3%,5.6,.,.,.,1,-11,.,0.2
Cc1nn(CC(=O)Nc2ccc(C(=O)N3CCCC3)cc2)c(=O)c2ccccc12,-3,-4%,-0.8,.,.,.,5,-10,.,1.4
COc1nc(NCC(C)C)nc(Oc2ccc(=O)n(-c3ccccc3)n2)n1,1,-2%,-3.5,4,6,0.7,-2,-1,0.3,0.1
COCC(=O)N1CCC(Oc2ccc(C(=O)NC(C)c3csc(C)n3)cc2)CC1 (stereo unspecified),3,.,-0.5,7,9,-1.1,-10,7,-2.4,-0.2
CCOC(=O)C(NC(C)=O)(Nc1ccc(S(N)(=O)=O)cc1)C(F)(F)F (stereo unspecified),.,-2%,5.6,.,.,.,11,-8,.,1.5
O=C(CCN1C(=O)/C(=C/c2ccccc2F)SC1=S)NCCCn1ccnc1,.,.,2.5,-11,-9,0.4,-3,-9,11,0.0
Cc1cc(C)cc(N(CC(=O)NC2CCC(C)CC2)S(=O)(=O)c2c(C)[nH]c(=O)[nH]c2=O)c1 (stereo unspecified),-5,25%,3.3,-6,-10,2.5,2,1,1.7,-0.2
CCC(=O)c1cn(CC(=O)Nc2cccc(C)c2)c2ccccc12,-14,.,-1.9,2,4,1.2,5,1,-3.1,2.1
COc1cc(C(O)P(=O)(OC(C)C)OC(C)C)cc(OC)c1OC (stereo unspecified),-1,.,0.1,.,.,.,-9,-9,.,0.0
CCCCn1c(N)c(N2CCOCC2)c(=O)n(CC(=O)NC(C)c2ccccc2)c1=O (stereo unspecified),-4,-7%,27*,-1,1,-0.4,-1,-8,-1.2,0.9
Cc1ccc(C)c(NC(=S)N2CCC(c3nc4ccccc4s3)CC2)c1,-8,0%,5.1,-35*,-22*,-6.6*,-13,60*,3.6,0.2
O=C(NC(=S)Nc1ccccc1N1CCCC1)c1ccc(-c2cccc([N+](=O)[O-])c2)o1,0,17%,-3.5,.,.,.,9,5,.,-0.7
# Further structures:
SMILES,Beta apoptosis,Vif A3G,RanGTP-Impb inh,Ecoli rRNA inh,Ecoli rRNA inh OD600,Ecoli rRNA inh RFP,Calb FLC,T cruzi repl,AF4-AF9 inh,A1 inh
Cc1cc(C)n(Cc2ccc(NC(=O)c3nn(C)cc3[N+](=O)[O-])cc2)n1,-64,67%,2.4,.,.,.,-8,-1,.,-1.0
Cc1cc2cc(CNC(=O)c3ccc(Br)o3)ccc2[nH]1,-5,.,-6.7,-3,7,26,1,-4,-0.5,0.5
Cc1cccc(NC(=S)NNC(=O)c2cccc([N+](=O)[O-])c2)c1,.,2%,0.2,-11,-4,-4.1,-2,-11,4.5,-1.1
CN(C)S(=O)(=O)c1cccc(NC(=S)N/N=C/C(c2ccccc2)c2ccccc2)c1,-1,?,-5.0,.,.,.,1,-3,.,1.0
CC(C)(C)n1cnc2cc(NC(=O)c3ccccc3)ccc21,3,.,-0.1,-5,-6,-6.2,6,3,1.8,-3.8

# Only part of the results is shown; count on the stated rates, not on these rows.
